Screening results deposited in PubChem BioAssay by Broad Institute.
ALR inh – blocks human ALR sulfhydryl oxidase activity; P55789; purified ALR, DTT oxidation, H2O2 HRP-luminol luminescence; inhibition, % (no concentration beside the values); actives 3.8% (n = 290,000); AID 485317;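 active = mean and each replicate at 75% or more; inconclusive = only one of the two met; inactive = neither met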;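 note: stock transfer was 7.5 nL into about 7.5 µL; 0% = neutral wells and 100% = wells with inactivated enzyme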
Target sequence (P55789 whole entry, looked up): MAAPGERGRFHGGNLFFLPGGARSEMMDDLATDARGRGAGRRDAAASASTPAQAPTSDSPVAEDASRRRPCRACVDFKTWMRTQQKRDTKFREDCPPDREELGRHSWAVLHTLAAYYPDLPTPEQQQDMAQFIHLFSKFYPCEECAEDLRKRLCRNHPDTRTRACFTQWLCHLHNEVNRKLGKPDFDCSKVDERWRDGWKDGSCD
Beta apoptosis – blocks beta cell apoptosis | INS-1E cytokine-induced death, ATP luminescence, 48 h; percent of positive-control rescue, neutral wells zero | actives 0.8% (n = 300,000) | protection from apoptosis, % (no concentration beside the values);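 active = all replicates at 75% or more, or half of them and the mean; inconclusive = half reach 75% but not the mean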;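 note: 0% = cytokine-treated negative control wells and 100% = positive control rescue; higher means more ATP so stronger rescue from cytokine killing; wells of about 40 µL received 100 nL stock; the first replicate is given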
MLL AF4-AF9 inh – blocks AF4 peptide binding to human AF9; P42568; AlphaScreen, biotin-AF4 peptide binding to FLAG-AF9; inhibition, % at 10 µM; actives 0.47% (n = 350,000);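 active = every replicate reaching a set inhibition limit, whatever the replicate mean, cut at about 25% in these data; inconclusive = mean inhibition reaches that limit but some replicates miss it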;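 note: 0% = plate neutral control median and 100% = total signal loss; the record names both 10 and 1 µM as test concentration; the first replicate is given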
Target sequence (P42568 whole entry, looked up): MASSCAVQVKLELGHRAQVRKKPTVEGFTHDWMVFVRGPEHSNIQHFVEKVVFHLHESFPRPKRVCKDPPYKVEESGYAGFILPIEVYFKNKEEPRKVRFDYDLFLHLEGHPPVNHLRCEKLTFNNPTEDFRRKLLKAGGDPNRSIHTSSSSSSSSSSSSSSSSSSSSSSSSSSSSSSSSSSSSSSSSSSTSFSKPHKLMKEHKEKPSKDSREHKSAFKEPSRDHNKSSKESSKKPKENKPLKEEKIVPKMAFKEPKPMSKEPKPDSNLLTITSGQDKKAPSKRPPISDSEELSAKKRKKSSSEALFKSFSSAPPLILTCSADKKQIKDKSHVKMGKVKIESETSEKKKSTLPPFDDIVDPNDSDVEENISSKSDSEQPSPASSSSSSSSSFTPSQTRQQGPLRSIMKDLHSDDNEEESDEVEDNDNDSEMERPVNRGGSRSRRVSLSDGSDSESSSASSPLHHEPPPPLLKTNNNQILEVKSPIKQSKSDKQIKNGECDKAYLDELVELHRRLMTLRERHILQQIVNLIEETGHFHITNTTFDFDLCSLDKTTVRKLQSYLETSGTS
T cruzi repl – blocks replication of Trypanosoma cruzi. AID 1885. actives 1.4% (n = 300,000). T. cruzi beta-gal in NIH3T3, luminescence, 90 h. inhibition, % (concentration not given with the values);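 active = mean inhibition across valid replicates above about 55%, limit read from the data; inconclusive = mean below that limit but half or more replicates reach it; inactive = mean below it, under half of replicates reach it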;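 note: signal also drops with host cell toxicity which is not excluded here; 0% = plate median of DMSO wells and 100% = zero luminescence signal; higher percent means less beta-gal luminescence so fewer parasites; stock transfer was 50 nL into about 50 µL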
RanGTP-Impb inh – disruptors of Ran-importin-beta complex formation – biochemical, FRET, CFP-Ran, YFP-importin-beta, homogeneous, primary screen; cell-free CFP-Ran/YFP-importin-beta FRET ratio; inhibition, % (concentration not given with the values); actives 1.1% (n = 300,000);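 active = most replicates above 15%; inconclusive = exactly half above 15%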;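 note: 0% = DMSO wells and 100% = Ran loaded with GDP instead of GTP; wells of about 40 µL received 100 nL stock; the first replicate is given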
FGF22 binding – FGF22 (human) thermal shift binding. recombinant FGF22 thermal shift, SYPRO orange fluorescence; percent of sucrose octasulfate shift, DMSO zero. calls only at 9.99 µM. actives 1.5% (n = 340,000). AID 651658;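 active = melting point raised past a set limit in the mean and every replicate; inconclusive = no clear call; three in four hits are not shown here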
Target sequence (Q9HCT0 whole entry, looked up): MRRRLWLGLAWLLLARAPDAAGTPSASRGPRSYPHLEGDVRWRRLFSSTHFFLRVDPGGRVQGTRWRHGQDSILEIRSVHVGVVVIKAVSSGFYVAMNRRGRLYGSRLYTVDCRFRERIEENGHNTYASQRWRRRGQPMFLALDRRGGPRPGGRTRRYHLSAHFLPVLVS
rRNA inh HTS – selective bacterial rRNA inhibition in E. coli; E. coli WT GFP vs humanized-ribosome RFP mutants, fluorescence, 24 h; active compounds read low; DMSO median 0, no signal -100; AID 720706; GFP signal change (wild-type ribosome), % (test concentration not listed); actives 1.6% (n = 350,000);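 active = significant combined selectivity score with lowered wild-type GFP, culture density cut under 30%, mutant RFP and density less affected; inactive = any of these conditions unmet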; note: one replicate is shown; some compounds called inactive have numbers as strong as hits
Calb FLC – affects C. albicans growth with fluconazole | C. albicans CaCi-2 (fluconazole-resistant clinical isolate) + fluconazole, Alamar Blue growth, 48 h | AID 1979 | actives 0.57% (n = 300,000) | growth inhibition, % (no concentration beside the values);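 active = most replicates above 75%; inconclusive = exactly half above 75%; inactive = most below 75%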;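 note: all wells also contain fluconazole at 8 µg/ml as a sub-toxic cotreatment; 0% = median of DMSO wells and 100% = median of geldanamycin control wells; wells of about 8 µL received 7.5 nL stock; the first replicate is given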
rRNA inh HTS OD600 – second read-out of rRNA inh HTS, no call of its own (marks repeat the call); OD600 change, %; measured here: OD600 growth;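 optical density of the mix in the first replicate; 0 = DMSO median and -100 = no signal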
rRNA inh HTS RFP – recorded beside rRNA inh HTS, whose call it bears; RFP signal change, %; measured here: RFP humanized mutant strains;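 first replicate; 0 = DMSO median and -100 = no signal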
An asterisk follows results filed as active; i = inactive; ? = inconclusive; . = not tested or not shown. Not all compounds are listed, so the mix of outcomes need not match the whole.

smiles	RanGTP-Impb inh	MLL AF4-AF9 inh	FGF22 binding	rRNA inh HTS RFP	rRNA inh HTS	Beta apoptosis	Calb FLC	rRNA inh HTS OD600	ALR inh	T cruzi repl
C[N+]1(CC(=O)OCCCc2ccccc2)CCCC1	-0.1	-6.7	i	-0.1	3	6	-10	6	-4	-5
C=CCn1c(=NC(=O)c2sc3ccccc3c2Cl)sc2cc(S(N)(=O)=O)ccc21	1.9	.	.	.	.	6	-1	.	-14	35
CN(C)/C=N/c1c(C#N)cnn1-c1ccc(C(F)(F)F)cn1	.	-10	i	2.4	4	1	.	4	-7	.
C=CCN(c1ccccc1OC)S(=O)(=O)c1cccc(C(=O)OCC(=O)N2CC(C)OC(C)C2)c1 (stereo not drawn)	.	-2.8	i	-0.1	-4	-1	.	-6	-3	.
CC(C)NC(=O)NC1C2CC3CC(C2)CC1C3 (stereo not drawn)	2.3	.	.	.	.	-1	-4	.	-1	2
O=C(O)c1ccccc1C(=O)Nc1ccc(S(=O)(=O)N2CCCC2)cc1	0.6	-9.5	i	0.4	0	-3	5	3	-1	-4
Cc1cc(=O)oc2cc(OCC(=O)Nc3ccc(S(=O)(=O)N(C)C)cc3)ccc12	?	-27	i	5.8	3	-2	19	19	-8	-3
Cn1c(-c2ccc3ccccc3n2)[n+](C)c2ccccc21	7.9	-7.0	i	-0.6	6	34	6	8	-9	-22
Cc1nnc(SCC(=O)N2c3ccccc3CC2C)s1 (stereo not drawn)	1.3	.	.	.	.	2	-6	.	-2	8
CCCn1c(C)cc(C(=O)COC(=O)CN=C2NS(=O)(=O)c3ccccc32)c1C	0.2	.	.	.	.	-8	4	.	39	-6
Cc1cc(-c2nnnn2-c2cc(Cl)cc(Cl)c2)no1	-1.8	.	i	-4.3	14	3	-1	-7	5	-19
CC(=O)Nc1ccc(/C=C/c2nc3ccccc3o2)cc1	5.7	5.2	i	1.0	-24	.	-17	-36	.	-14
Cc1ccc(NC(=O)NNc2cccc(Cl)n2)cc1	4.6	.	.	.	.	-4	-11	.	-29	4
Cc1onc(-c2ccccc2)c1-c1ccnn1S(=O)(=O)c1ccc(Cl)cc1	-0.6	-0.7	i	0.0	-19	0	-3	-34	-10	.
O=C(/C=C/c1ccco1)NC(=S)Nc1ccccn1	-1.5	.	.	.	.	-2	2	.	99*	-3
Cc1onc(-c2ccccc2)c1C(=O)NC(=S)NNC(=O)c1cc(-c2ccc(F)cc2)n[nH]1	1.0	.	i	-8.5*	-33*	27	0	-6.9*	1	4
CCc1nn(CC(=O)NCCCc2ccccc2)c(=O)c2cc3c(OC)cccc3n12	0.4	-3.3	i	0.2	16	-2	-8	7	-17	-7
CCn1nnnc1SCC(=O)N(C)C1CCS(=O)(=O)C1 (stereo not drawn)	.	-0.7	i	-3.3	18	-8	.	11	-2	.
CNC(=S)N1CCC(NC(=O)C23CC4CC(CC(C4)C2)C3)CC1	?	-7.1	i	3.1	12	.	4	17	-4	0
COCCn1c(SCC(=O)Nc2cc(C(C)(C)C)nn2-c2ccccc2)nc2ccccc2c1=O	?	-22	i	-1.0	4	3	2	3	-5	7
COc1nccnc1NS(=O)(=O)c1ccc(N/C=C2\CCCCC2=O)cc1	-1.7	-2.1	i	1.4	-18	.	?	-14	-17	-9
CCOc1ccc(S(=O)(=O)N2CCN=C2c2ccccc2)cc1	-0.1	-0.8	i	1.6	10	5	-7	-1	-3	-7
C=CC[C@@H](CC(=O)OC(C)(C)C)C(=O)OC[C@@H]1CCCN1C(=O)[C@H](CC=C)CC(=O)NCCO	.	-7.2	i	2.0	15	0	.	12	1	.
COc1ccc(-c2cn(CCC(=O)NCc3ccc(C)cc3)c(-c3ccncc3)n2)cc1	-6.8	-40	i	-24	-14	-5	-9	-20	6	10
Cc1ccc(/C=N/NC(=O)c2ccc(Br)o2)s1	1.5	.	.	.	.	-4	4	.	1	4
O=S(=O)(c1ccccc1)N1CN(c2ccc(F)cc2F)c2nc3ccccc3nc21	.	6.1	.	-3.2	-10	-4	.	-15	.	.
CN(C)CCCN1C(=O)c2oc3ccc(Cl)cc3c(=O)c2C1c1cccnc1 (stereo not drawn)	1.6	-7.2	i	1.0	6	-1	4	7	3	-8
N#CC1C=Cc2ccccc2N1C(=O)c1ccccc1 (stereo not drawn)	1.8	-4.2	i	-2.5	-4	-11	0	4	-1	-4
O=C(CNCc1ccccn1)Nc1ccc([N+](=O)[O-])cc1C(=O)Nc1ccccc1F	0.1	2.9	i	-2.6	-2	2	3	0	.	3
Cc1ccccc1C(=O)Nc1ccnn1C1CCN(C(C)Cc2ccccc2F)CC1 (stereo not drawn)	?	1.8	i	1.8	6	1	-12	0	-1	12
O=C(Nn1c(-c2ccccc2)nc2ccccc2c1=O)c1cccs1	?	.	.	.	.	.	-18	.	-5	1
Cc1sc2nc(CN3CCCC3)nc(NCc3ccncc3)c2c1C	6.1	-1.0	i	0.6	22	-6	-2	10	.	8
Cc1ccc(S(=O)(=O)N2CCN(C3CCC(c4ccccc4)CC3)CC2)cc1 (stereo not drawn)	3.0	.	.	.	.	37	-26	.	1	32
CC(=O)c1ccc(NC(=O)Nc2cccc(Cl)c2)cc1	?	.	.	.	.	11	10	.	-3	12
CN(CC(=O)Nc1ccc(OC(F)(F)F)cc1)C1CCCCC1	-1.5	-23	i	-7.0	0	0	-1	-8	0	0
Cc1c(CCOC(=O)C23CC4CC(CC(C4)C2)C3)sc[n+]1CC#N	0.2	-4.8	i	3.0	6	-6	-11	6	2	-6
Cc1onc(-c2c(Cl)cccc2Cl)c1NC(=O)NNc1c(Cl)cncc1Cl	7.8	.	i	3.8	5	0	-2	0	.	-4
O=c1cc(Nc2ccc3c(c2)OCCO3)[nH]c(=O)n1-c1ccc(Br)cc1	-3.1	.	.	.	.	.	2	.	-3	-6
COc1cc(C(C#N)N2N=C(c3ccccc3)CC2c2ccccc2)ccc1O (stereo not drawn)	-0.3	.	.	.	.	2	-23	.	21	1
COc1ccc(C2=NN(CC(=O)NCC(OC)OC)C(=O)CC2)cc1	4.0	1.9	i	-1.6	11	2	2	10	7	-10

Among those listed so far, these have an NH in an aromatic ring:
smiles	RanGTP-Impb inh	MLL AF4-AF9 inh	FGF22 binding	rRNA inh HTS RFP	rRNA inh HTS	Beta apoptosis	Calb FLC	rRNA inh HTS OD600	ALR inh	T cruzi repl
Cc1onc(-c2ccccc2)c1C(=O)NC(=S)NNC(=O)c1cc(-c2ccc(F)cc2)n[nH]1	1.0	.	i	-8.5*	-33*	27	0	-6.9*	1	4
O=c1cc(Nc2ccc3c(c2)OCCO3)[nH]c(=O)n1-c1ccc(Br)cc1	-3.1	.	.	.	.	.	2	.	-3	-6

Following part
smiles	RanGTP-Impb inh	MLL AF4-AF9 inh	FGF22 binding	rRNA inh HTS RFP	rRNA inh HTS	Beta apoptosis	Calb FLC	rRNA inh HTS OD600	ALR inh	T cruzi repl
COC(=O)C1C(O)=C(C=Nc2ccccc2)C(=O)CC1(C)C (stereo not drawn)	1.4	-5.7	i	-0.5	19	.	?	22	100*	-8
CN(C)CCNC(=S)Nc1ccc(F)c(F)c1F	-0.3	-4.4	i	-0.6	7	4	-13	13	18	11
CCCCOc1ccc(C(C)NC(=O)CCS(=O)(=O)Cc2ccccc2F)cc1 (stereo not drawn)	0.2	3.1	i	0.3	14	-1	-2	19	-13	1
CCc1c(C)sc(NC(=S)NC(C)C2CCCO2)c1C(=O)OC (stereo not drawn)	-1.0	0.1	i	-1.9	-1	10	-16	-8	.	.
O=C(CSc1nc2ccccc2s1)NC1CCCC1	3.8	-2.0	i	-2.5	-1	-14	17	7	99*	-6
O=C(NCC12CC3CC(CC(C3)C1)C2)c1nc2ncccn2n1	0.1	.	.	.	.	-5	-4	.	-3	-13
Cc1ccc(NC(=O)Nc2cccnc2)cc1NC(=O)Nc1cccnc1	-1.7	-2.5	i	-5.7	-4	13	.	4	11	16
COc1ccc(N=Cc2c(O)n(-c3cccc(C)n3)c(=O)c3ccccc23)cc1	14	.	.	.	.	0	-3	.	-11	8
COCCNC(=O)Cn1c(=O)n(CCCCCC(=O)Nc2ccccc2)c(=O)c2sccc21	9.1	-4.5	i	.	.	-4	-12	.	-33	-1
CCOC(=O)N1CCN(C(=O)CS(=O)Cc2nc(-c3ccc(C)cc3)oc2C)CC1 (stereo not drawn)	-2.4	-10	i	-1.7	1	-5	-4	0	.	-23
O=S(=O)(c1ccc(Oc2ccc(-c3nnco3)cc2)nc1)N1CCC(Cc2ccccc2)CC1	4.5	.	.	.	.	6	14	.	10	10
CC(C)CN(CC(C)C)S(=O)(=O)N1CCC(C(=O)NC2CCCCCCC2)CC1	-1.2	.	.	-1.2	6	30	-21	3	-6	-4
COc1ccccc1N1CCN(CC(O)COCCOc2ccc(Br)cc2)CC1 (stereo not drawn)	?	0.4	i	7.7	-12	4	1	-15	.	?
O=C(COC(=O)C1(c2ccccc2)CC1)NNC(=O)c1ccccc1	0.3	-0.8	i	0.5	4	-3	8	5	-1	-3

A stretch of the results above, as a working copy:
smiles	RanGTP-Impb inh	MLL AF4-AF9 inh	FGF22 binding	rRNA inh HTS RFP	rRNA inh HTS	Beta apoptosis	Calb FLC	rRNA inh HTS OD600	ALR inh	T cruzi repl
COCCNC(=O)Cn1c(=O)n(CCCCCC(=O)Nc2ccccc2)c(=O)c2sccc21	9.1	-4.5	i	.	.	-4	-12	.	-33	-1
CCOC(=O)N1CCN(C(=O)CS(=O)Cc2nc(-c3ccc(C)cc3)oc2C)CC1 (stereo not drawn)	-2.4	-10	i	-1.7	1	-5	-4	0	.	-23
O=S(=O)(c1ccc(Oc2ccc(-c3nnco3)cc2)nc1)N1CCC(Cc2ccccc2)CC1	4.5	.	.	.	.	6	14	.	10	10
